ClpP mod: qHTS Assay for Activators of ClpP. AID 651965, 2013. ATP-dependent Clp protease proteolytic subunit (Bacillus subtilis (strain 168)), P80244. Potency, µM (highest dose often 57.5 µM), without a hit: top-dose activity change, negative = active. actives 1.9% (n = 340,000). purified B. subtilis ClpP, FRET peptide cleavage, 20 min; active = well fitted falling curve with a large enough effect; inconclusive = small, poorly fitted or top-dose-only effect; inactive = no such curve, though single readings can be large or run the other way; note: potency is the fitted concentration of half-maximal effect; the source files actives as falling curves though it sought activators and does not explain the sign; nearly all actives have a fitted effect of over 65% in size; many hits overshoot -100%
Target sequence (P80244 whole entry, looked up): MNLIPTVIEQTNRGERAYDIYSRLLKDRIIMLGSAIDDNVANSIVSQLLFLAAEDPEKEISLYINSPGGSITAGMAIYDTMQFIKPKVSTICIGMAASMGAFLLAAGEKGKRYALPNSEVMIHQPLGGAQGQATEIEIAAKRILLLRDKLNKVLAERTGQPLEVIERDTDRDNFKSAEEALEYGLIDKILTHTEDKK
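FRET quenching reversal measured ClpP activation: 10 microg/mL B. subtilis ClpP at pH 8 with the FRET-FV decapeptide, read at 430 nm after 320 nm excitation. The 20-min minus 0-min signal was scaled between DMSO/no-enzyme wells and ADEP (5.8 microM final).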
TRPML1 inh: human mucolipin-1 channel inhibition | Q9GZU1 | TRPML1-inducible cells, Ca2+ dye fluorescence, FDSS; stronger effect = lower value; inhibition of EC80 agonist-evoked calcium signal | AID 624415 | actives 0.02% (n = 390,000) | activity change, negative = inhibition, % (concentration not given with the values); in the data active means activity change below about -50%; inconclusive means about -30% to -50%; inactive means above about -30%;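 note: stimulus is agonist 54-4 at its EC80 concentration; % is set by controls: 0 for no effect and ±100 for the full control effect; compound concentration not given in the record; the text of the record puts the active cut at -80%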
Target sequence (Q9GZU1 whole entry, looked up): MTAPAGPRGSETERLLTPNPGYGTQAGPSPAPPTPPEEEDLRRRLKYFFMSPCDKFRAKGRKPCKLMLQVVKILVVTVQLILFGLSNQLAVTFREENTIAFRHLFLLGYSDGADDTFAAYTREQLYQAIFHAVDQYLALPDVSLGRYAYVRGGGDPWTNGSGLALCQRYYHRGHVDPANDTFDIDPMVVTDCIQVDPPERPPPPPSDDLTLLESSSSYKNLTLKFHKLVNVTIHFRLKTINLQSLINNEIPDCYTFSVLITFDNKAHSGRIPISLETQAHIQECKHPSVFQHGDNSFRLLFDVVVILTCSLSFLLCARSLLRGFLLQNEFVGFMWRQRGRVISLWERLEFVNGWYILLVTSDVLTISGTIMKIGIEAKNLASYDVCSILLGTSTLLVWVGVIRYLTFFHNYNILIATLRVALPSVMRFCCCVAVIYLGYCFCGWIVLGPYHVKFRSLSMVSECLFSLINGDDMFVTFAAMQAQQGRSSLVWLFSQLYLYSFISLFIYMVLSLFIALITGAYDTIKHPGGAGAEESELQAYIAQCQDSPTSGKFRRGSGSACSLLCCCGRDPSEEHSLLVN
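TRPML1-DL cells, Tet-induced overnight (~16 h, 37 °C) at 1,500 cells/well, were loaded with Ca8 no-wash dye plus quencher for 45-90 min at room temperature. Compounds were pinned during FDSS kinetic reading; agonist 54-4 at EC80 (4 uM final) then added.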
Active calls of the source: *; ? = inconclusive.

Start of the data: the first 6 entries as a preview:
SMILES	ClpP mod	TRPML1 inh
Cc1ccc(/C=C/C(=O)Nc2ccc(Cl)cc2Cl)cc1	0.3%	0
CC(=O)c1ccc(NC(=O)CN(C)S(=O)(=O)c2cc3c(cc2C)NC(=O)CO3)cc1	2.7%	-3
COc1ccc(CCNC(=O)C(=O)NCC(c2cccs2)S(=O)(=O)c2ccc(F)cc2)cc1 (stereo not drawn)	-1.2%	2
COC(=O)c1cccc(CN2C(=O)SC(Nc3ccc(Br)cc3)C2=O)c1 (stereo not drawn)	-2.5%	-16
Cc1ccc(C2=Nc3ccccc3N(CC(=O)Nc3ccccc3C)C(=O)C2)cc1C	-6.7%	-5
CCOC(=O)c1ccccc1NC(=O)c1c2c(nc3ccccc13)C(=O)N(C1CCCCC1)C2	-1.3%	5

The listing, from the first entry:
SMILES	ClpP mod	TRPML1 inh
Cc1ccc(/C=C/C(=O)Nc2ccc(Cl)cc2Cl)cc1	0.3%	0
CC(=O)c1ccc(NC(=O)CN(C)S(=O)(=O)c2cc3c(cc2C)NC(=O)CO3)cc1	2.7%	-3
COc1ccc(CCNC(=O)C(=O)NCC(c2cccs2)S(=O)(=O)c2ccc(F)cc2)cc1 (stereo not drawn)	-1.2%	2
COC(=O)c1cccc(CN2C(=O)SC(Nc3ccc(Br)cc3)C2=O)c1 (stereo not drawn)	-2.5%	-16
Cc1ccc(C2=Nc3ccccc3N(CC(=O)Nc3ccccc3C)C(=O)C2)cc1C	-6.7%	-5
CCOC(=O)c1ccccc1NC(=O)c1c2c(nc3ccccc13)C(=O)N(C1CCCCC1)C2	-1.3%	5
CCOc1ccc(NC(=O)c2c(NCc3cccc(OC)c3OC)sc3c2CCC3)cc1	-0.5%	-30
COc1ccc(NC(=O)C2=C(C)Nc3ncnn3C2c2ccc(C)o2)cc1 (stereo not drawn)	1.1%	9
CC(=O)Nc1cccc(NC(=O)C(=O)NCCc2csc3nc(-c4ccccc4F)nn23)c1	-3.2%	25
N#Cc1ccccc1S(=O)(=O)NC(=O)[C@H]1O[C@@H](n2cnc3c(N)ncnc32)[C@H](O)[C@@H]1O	-3.8%	-10
Cc1nc2ccc(S(=O)(=O)NC(C(=O)N3CCN(c4ccc(Cl)cc4)CC3)C(C)C)cc2s1 (stereo not drawn)	0.0%	16
CCOC(=O)C1CCN(C(=O)Cn2c(-c3cccs3)cc3cc(Cl)ccc32)CC1	35µM*	-3
CCCC(=O)Nc1nnc(SCc2cc(=O)n3cccc(C)c3n2)s1	-0.9%	11
CCn1cc(C(=O)N2CCN(c3ccccc3)CC2)c(=O)c2cc(S(=O)(=O)N(C)C3CCCCC3)ccc21	0.9%	-3
CCC(C)NC(=O)CCCc1nnc2n(CC(C)C)c(=O)c3sccc3n12 (stereo not drawn)	-5.2%	4
COC(=O)c1scc(-c2ccc(C)cc2)c1S(=O)(=O)Nc1cccc(C(F)(F)F)c1	22%	29
Cc1ccc(C2C=C(c3ccc(Cl)cc3)Nc3nc(NS(=O)(=O)c4ccccc4)nn32)cc1 (stereo not drawn)	4.3%	0
C[C@@H]1CCCCO[C@@H](CN(C)C(=O)CCCN(C)C)[C@@H](C)CN([C@H](C)CO)C(=O)c2cc(N(C)C)ccc2O1	-4.9%	13
COc1ccc(OC)c(NC(=O)C2Cc3ccccc3CN2S(=O)(=O)c2ccc(F)cc2)c1 (stereo not drawn)	-0.6%	59
CCOc1ccc(-n2cc(-c3ccccc3)c3c(NCc4ccc(F)cc4)ncnc32)cc1	5.0%	3
CCN(CC)CCCNC(=O)CSc1nc(-c2ccc(OC)cc2)cc(C(F)(F)F)n1	4.6%	3
CC(C)CN(CCNC(=O)CCN1N=C(c2ccccc2)CCC1=O)CC(C)C	-3.1%	-2
COc1ccccc1C(=O)Nc1ccc(-c2nc3ccccc3s2)c(C)c1	2µM*	-20
CC(=O)c1cccc(NC(=O)C2CCCN(C(=O)c3cnn(-c4ccccc4)c3-n3cccc3)C2)c1 (stereo not drawn)	1.9%	-9
O=S(=O)(Nc1ccc(OC(F)(F)F)cc1)c1ccc(N2CCCCS2(=O)=O)cc1	-0.7%	3
Going on with the list.
SMILES	ClpP mod	TRPML1 inh
Cc1nn2c(=O)cc(COC(=O)c3ccc(NC(=O)C4CCCCC4)cc3)nc2s1	?	-10
Cc1cc(=O)n2c(C(=O)Nc3ccc(C)c(Cl)c3)c(C(=O)Nc3ccccc3)sc2n1	2.6%	3
COc1ccccc1NC(=O)CCn1nc(-c2ccccc2OC)c2c(C)cc(C)nc21	?	-7
CCC(=O)Nc1ccccc1-c1nc2ccccc2n(CC(=O)c2ccc(C)c(C)c2)c1=O	-2.5%	24
Cc1ccc2scc(N3CCCC(C)C3)c(=O)c2c1 (stereo not drawn)	-4.0%	1
CCc1ccccc1N(C)C(=O)c1cn(CC(C)C)c(=O)c2cc(OC)c(OC)cc12	-4.9%	2
CCOC(=O)C1(C)CCCCN1C(=O)c1ccc(F)c(C)c1 (stereo not drawn)	0.4%	0
O=C(O)Cn1nc(N2CCN(c3ccc(F)cc3)CC2)ccc1=O	-0.8%	-21
Cc1ccc(N(C(=O)COc2ccccc2C)S(=O)(=O)c2ccc(Cl)cc2)cc1	0.71µM*	0
CC(C)Sc1ncc(Cl)c(C(=O)Nc2nc3ccc(S(C)(=O)=O)cc3s2)n1	1.7%	-15
CCc1ccccc1NC(=O)CSc1nc(C)c(C(=O)Nc2ccccc2)c(-c2ccc(Cl)cc2)c1C#N	-1.4%	11
Cc1ccc(O)c(-c2n[nH]c3c2C(c2ccc(F)cc2)N(Cc2ccco2)C3=O)c1 (stereo not drawn)	-5.0%	51
Cc1ccc(NC(=O)Cn2c(=O)n(CCc3ccccc3)c(=O)c3c4c(sc32)CCCC4)cc1C	1.6%	16
COc1ccc(NC(=O)c2ccco2)cc1NC(=O)C(C)(C)Oc1ccc(Cl)cc1	-3.6%	29
COc1ccc(-c2ccc(CCC(=O)O)n2-c2ccc(Cl)cc2C)cc1	-4.8%	10
COc1ccccc1CNC(=O)CCc1c(C)nc2cc(-c3ccc(Cl)cc3)nn2c1C	-5.2%	-10
COc1cccc(N2CCN(C(=O)CCCn3c(=O)[nH]c4ccc(Br)cc4c3=O)CC2)c1	2.3%	3
CC(C)CN(CCCNC(=O)c1cc(-c2cccs2)nc2ccccc12)CC(C)C	4.4%	-6
CCN(CC)C(=O)c1sc2c(c1C)c(=O)n(Cc1ccccc1)c(=O)n2Cc1c(C)cc(C)cc1C	-0.5%	62
O=C(Nc1cccc2cccnc12)c1ccc(-c2cccc(Cl)c2)o1	-14%	49
COc1ccc(-n2nnnc2C2CCN(S(=O)(=O)c3ccc(NC(C)=O)cc3)CC2)cc1	1.7%	-14
Cc1nnc(SCC(=O)NCc2cccc(F)c2)c2nn(-c3ccccc3)c(C)c12	-1.2%	-3
COc1cc(Cl)c(NC(=O)CN2C(=O)c3cccnc3Sc3ccccc32)c(OC)c1	-1.0%	12
Brc1ccc(-c2nc3ccc(Br)cn3c2Cc2ccccc2)cc1	-7.6%	-2
COc1ccc(OC)c(C(=O)CN2C(=O)N(c3ccc(C)cc3)S(=O)(=O)c3ccccc32)c1	4.1%	-11

Three of these compounds in another layout:
> COc1cc(Cl)c(NC(=O)CN2C(=O)c3cccnc3Sc3ccccc32)c(OC)c1
  ClpP mod: -1.0%
  TRPML1 inh: 12

> Brc1ccc(-c2nc3ccc(Br)cn3c2Cc2ccccc2)cc1
  ClpP mod: -7.6%
  TRPML1 inh: -2

> COc1ccc(OC)c(C(=O)CN2C(=O)N(c3ccc(C)cc3)S(=O)(=O)c3ccccc32)c1
  ClpP mod: 4.1%
  TRPML1 inh: -11

Additional compounds:
SMILES	ClpP mod	TRPML1 inh
Cc1ccc(S(=O)(=O)C2(C(=O)Nc3ccc(C)c(Cl)c3)CC2)cc1	-1.9%	30
COc1cccc(CNC(=O)CCc2c(C)c3cc4c(C)coc4cc3oc2=O)c1	4.1%	-24
O=C(C1CCN(S(=O)(=O)Cc2ccccc2)CC1)N1CCN(c2ccccc2F)CC1	1.3%	49
CCc1ccc(S(=O)(=O)Nc2cccc(-c3ccc(N4CCCCC4)nn3)c2)s1	-4.8%	-25
COc1cccc(Cn2c(=O)n(-c3cccc(Cl)c3C)c(=O)c3c4c(sc32)CN(C(C)=O)CC4)c1	-1.7%	-14
CCOC(=O)c1c(S(=O)(=O)NCC(=O)N(C)Cc2ccccc2)c(C)n(C)c1C	-2.9%	-12
COc1ccc(Cl)cc1Nc1sc(C(=O)c2ccccc2)c(N)c1C(=O)Nc1ccccc1	-3.8%	15
Cc1cccc(-c2nc3scc(CCNS(=O)(=O)c4ccc(F)c(C(F)(F)F)c4)n3n2)c1	0.0%	6
CC(C)CC(N)c1csc(NC(=O)NCCc2ccccc2)n1 (stereo not drawn)	-0.3%	15
COc1ccc(NC(=O)C2CCCN(C(=O)c3cnn(-c4ccccc4)c3-n3cccc3)C2)cc1 (stereo not drawn)	-2.2%	38
Cc1ccc(NC(=O)c2nc(S(C)(=O)=O)ncc2N(Cc2cccc(F)c2)Cc2ccco2)cc1C	-4.6%	34
COc1ccc(NC(=O)c2nnn(Cc3ccccc3C)c2N)c(OC)c1	207%	-6
COc1ccc(NC(=O)c2cc(C3CCCCN3C(=O)c3ccccc3)on2)c(C)c1 (stereo not drawn)	-0.9%	19
CCN(Cc1ccccc1)C(=O)Cn1c(=O)n(-c2ccc(Cl)cc2)c(=O)c2c(C)c(C(=O)N(C)C)sc21	-0.5%	-27
Cc1ccc2c(=O)c(C(=O)c3ccccc3)cn(CC(=O)NCc3ccccc3)c2n1	-2.2%	-11
CCOc1ccc(-c2nnc(SCC(=O)Nc3cc(F)ccc3F)o2)cc1	5.8%	-24
O=C(Nc1ccc(OCc2cc(=O)n3ccccc3n2)cc1)c1ccccc1Cl	-3.8%	28
O=C(Cn1cc(SCc2ccc(C(F)(F)F)cc2)c2ccccc21)N1CCCC1	1.8%	-8
Cc1nn2c(=O)cc(COC(=O)COc3ccc(F)cc3)nc2s1	-3.2%	-9
COc1ccc(-c2nc(SCC(=O)Nc3ccc4c(c3)OCCO4)c(-c3ccc(F)cc3)[nH]2)cc1OC	-7.6%	-6
CCOc1ccc(-c2cn3c(n2)sc2cc(C(=O)NCCc4ccc(OC)c(OC)c4)ccc23)cc1	35µM*	-9
O=C(NCc1noc2ccccc12)N1CCN(c2ccccc2F)CC1	-0.1%	-15
CNS(=O)(=O)c1cn(CC(=O)Nc2ccc(C(C)=O)cc2)cc1S(=O)(=O)NC	0.6%	-18
O=C(CSC1=Nc2ccccc2C2=NC(Cc3ccccc3)C(=O)N12)Nc1ccccc1 (stereo not drawn)	?	8
CCN(C(=O)Cn1c(SCC(=O)NCc2ccccc2)nc2ccccc21)c1cccc(C)c1	-1.9%	30
The list continues.
SMILES	ClpP mod	TRPML1 inh
COc1ccc(CNC(=O)c2cnc3sc(N4CCCC4)nn3c2=O)c(OC)c1	-7.9%	2
COc1cccc(CNC(=O)Cc2csc3ccccc23)c1OC	-0.9%	-2
Cc1nn(CC(=O)NCc2ccccc2Cl)c(=O)c2nn(-c3ccccc3)c(C)c12	-5.0%	-3
Cc1ccc(N2C(=O)N(CC(=O)C(C)(C)C)c3ccccc3S2(=O)=O)cc1C	-3.5%	-2
COc1ccc(N2CC(NC(=O)c3cc4ccccc4o3)CC2=O)cc1OC (stereo not drawn)	-3.9%	16
CCOc1ccc(-c2nonc2NC(=O)c2oc3cc(Br)ccc3c2C)cc1	-25%	5
CCOc1ccc(C2Nc3c(C)cccc3-c3cc(C)nn32)cc1 (stereo not drawn)	3.5%	32
CCOc1ccccc1NC(=O)CSc1nccn1-c1ccc(Cl)cc1	-0.1%	32
CC(=O)c1cccc(NC(=O)Cn2c(C)c3cnn(-c4ccccc4)c(=O)c3c2C)c1	-5.0%	35
COc1ccc(CCNc2ncnc3onc(C)c23)c(OC)c1	-1.6%	7
COc1ccc(C(CNC(=O)c2ccc(F)cc2)N2CCCC2)cc1 (stereo not drawn)	-4.2%	-19
COc1ccc(-c2cc(NC=O)c3ncc(-c4ccc(C(C)=O)cc4)n3c2)cc1OC	-25%	15
COc1ccc(CCNC(=O)c2ccc(-n3c(C)cc4c3CCC(C)C4)cc2)cc1OC (stereo not drawn)	-4.7%	11
CCn1c(SCC(=O)c2ccccc2)nnc1-c1cccc(Cl)c1	-1.4%	-1
Cc1ccc(NC(=O)CN(C)S(=O)(=O)c2ccc3c(c2)n(C)c(=O)c(=O)n3C)cc1F	-9.9%	34
CCOC(=O)c1ccccc1NC(=O)CSc1nccn1Cc1ccco1	-2.8%	-4
Cc1oc2c(c(C)cc3oc(=O)c(CC(=O)NCc4ccc(F)cc4)c(C)c32)c1C	4.7%	17
CCOc1ccc(NC(=O)C2CCCN(S(=O)(=O)c3c(C)noc3/C=C/N(C)C)C2)cc1 (stereo not drawn)	0.7%	1
Cn1c(NCCOc2ccccc2Cl)nc2cc(-c3ccc(F)cc3)sc2c1=O	-14%	5
CN(Cc1ccccc1F)c1cc2c(c3c1ccn3C)C1CCC2C1 (stereo not drawn)	-8.8%	-22
CCOc1ccc(C(=O)NCCn2cc(SCC(=O)Nc3ccc4c(c3)OCCO4)c3ccccc32)cc1	-0.1%	-8

Source: PubChem

Not all compounds are listed; count on the stated rates, not on these rows.
